Screens as filed in PubChem.
KCNQ2 block: KCNQ2 potassium channel inhibitors, primary screen, cell-based, CHO-K1, FluxOR thallium flux, B-score (AID 2156) | 20 min; hits give low values; only compounds with negative scores are shown here; some inactives read as strong as hits | actives 1.1% (n = 310,000) | B-score at 10 µM;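 active means fluorescence ratio B-score at most minus 3 library SDs, with starting brightness B-score within 2 library SDs, cut at about -5.5 in these data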
Target sequence (O88943 whole entry, looked up): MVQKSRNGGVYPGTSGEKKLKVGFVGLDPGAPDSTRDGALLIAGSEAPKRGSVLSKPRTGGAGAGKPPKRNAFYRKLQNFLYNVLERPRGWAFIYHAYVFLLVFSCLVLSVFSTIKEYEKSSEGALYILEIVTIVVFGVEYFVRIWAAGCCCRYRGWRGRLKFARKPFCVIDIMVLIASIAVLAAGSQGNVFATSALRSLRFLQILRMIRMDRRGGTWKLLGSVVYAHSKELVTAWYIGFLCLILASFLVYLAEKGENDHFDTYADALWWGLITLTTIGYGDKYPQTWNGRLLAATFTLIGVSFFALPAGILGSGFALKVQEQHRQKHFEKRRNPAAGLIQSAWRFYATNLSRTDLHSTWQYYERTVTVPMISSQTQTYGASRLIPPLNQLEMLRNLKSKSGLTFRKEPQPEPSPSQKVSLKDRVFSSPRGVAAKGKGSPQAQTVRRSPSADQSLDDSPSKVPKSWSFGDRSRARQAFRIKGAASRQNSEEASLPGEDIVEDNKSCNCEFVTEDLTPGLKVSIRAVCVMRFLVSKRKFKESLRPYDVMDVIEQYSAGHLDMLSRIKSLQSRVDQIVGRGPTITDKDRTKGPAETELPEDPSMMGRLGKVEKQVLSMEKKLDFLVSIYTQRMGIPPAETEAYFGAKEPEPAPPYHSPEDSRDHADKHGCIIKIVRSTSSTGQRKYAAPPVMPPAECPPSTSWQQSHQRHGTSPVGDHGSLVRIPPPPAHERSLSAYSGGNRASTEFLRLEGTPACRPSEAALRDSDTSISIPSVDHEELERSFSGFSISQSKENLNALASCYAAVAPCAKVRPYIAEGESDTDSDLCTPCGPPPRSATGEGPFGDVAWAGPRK
KCNQ2 block baseline: recorded beside KCNQ2 block, whose call it bears; B-score; measured here: initial fluorescence intensity artifact check;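 brightness before thallium and not channel activity; 0 = typical well and far values either way flag optical interference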
Active calls of the source: *; i = inactive. Only part of the results is shown. The share of hits here may be higher or lower than overall.

SMILES	KCNQ2 block	KCNQ2 block baseline
COc1ccc(NC(=S)N2CCc3ccccc32)cc1OC	i	1.3
CN(C)C1(CNC(=O)C2CCC(=O)N(Cc3ccc(Cl)cc3)C2)CCCCC1 (stereo not drawn)	i	-0.14
CC12CN3CCN(CC(C3)/C1=N/NC(=O)Nc1ccccc1)C2	i	0.69
COc1ccc(C(=O)Cn2c(NCCO)nc3ccccc32)cc1	i	-0.65
C/C(COc1ccccc1)=N\NC(=O)c1nnn(-c2nonc2N)c1CSc1ccccc1	i	0.28
Cc1nc2ccccc2c(=O)n1Nc1cccc(Cl)c1	i	2.3
Cc1ccsc1C(=O)OCC(=O)N(C)c1c(N)n(Cc2ccccc2)c(=O)[nH]c1=O	i	0.26
COc1ccc(CCNc2ncnc3sccc23)cc1OC	i	0.02
OCCN1CCN(CC(O)COc2ccc3c(c2)OCO3)CC1 (stereo not drawn)	i	-1.7
Cc1cccc(NC(=S)N(C)Cc2cn(C)c3ccccc23)c1	i	-0.14
N#CCSc1nnc(-c2ccccc2)c(-c2ccccc2)n1	i	0.72
COCCNC(=O)/C(C#N)=C/C(C)=C/c1ccccc1	i	0.69
Cc1cc(C)cc(N2C(=O)C3CCCN3C2=S)c1 (stereo not drawn)	i	0.41
Cc1ccc(S(=O)(=O)NCCS(=O)(=O)N2CCN(c3ccc(F)cc3)CC2)cc1	i	-0.92
COc1cc(SC)ccc1C(=O)N(Cc1ccccc1)c1ccccc1	i	-0.61
Nc1c(Nc2ccccc2)c2ccccc2oc1=O	i	0.4
Cc1cc(NC(=O)COC(=O)C(Nc2ccc(C(F)(F)F)cc2Cl)C(C)C)no1 (stereo not drawn)	i	2.2
O=C(NCc1ccccc1)c1ccc(-c2ccccc2F)o1	i	-0.17
COc1cccc(C(=O)OCC(=O)Nc2ccccc2N2CCOCC2)c1	i	-2.5
COC1=C/C(=C/c2c(N)n3nc(CC(=O)N4CCCCC4)sc3nc2=O)C=CC1=O	i	4
Cc1cc2c3c(c1)C(C)(c1ccccc1)CC(C)(C)N3C(=O)C21C(C#N)=C(N)OC2=C1C(=O)CC(C)(C)C2 (stereo not drawn)	i	2.3
CSc1ccccc1NC(=O)Cn1nc([N+](=O)[O-])cc1C	i	-2.8
O=C(NNC(=S)NC(=O)c1ccco1)c1ccc(F)cc1	i	0.01
O=C1NC(Cc2c[nH]c3ccccc23)C(=O)N1c1ccc(F)cc1 (stereo not drawn)	i	0.06
Cc1ccc(C(=O)N2CCCC2)c(F)c1F	i	1.5
O=C(Nc1ccc(N2CCOCC2)nc1)c1c(F)cccc1F	i	0.23
Fc1cccc(-c2cc3nc4c(c(N5CCC6(CC5)OCCO6)n3n2)CCCC4)c1	-6.6*	-2.4*
Cc1ccc2nc(NC(=O)c3ccccc3F)sc2c1	i	3.5
CCc1ccc(NC(=O)Nc2ccc3c(c2)CCC3)cc1	i	-0.44
CC(C)N=C1NN=C(c2ccc(Cl)c(Cl)c2)CS1	i	0.72
CN1C(=S)SC(/[N+]([O-])=C\c2cccs2)C1(C)C (stereo not drawn)	i	1.2
Cc1cc(=O)oc2cc(OCC(O)CN3CCN(c4ccccc4)CC3)ccc12 (stereo not drawn)	i	0.14
Cc1nc2sc(C(=O)Nc3ccccc3)c(N)c2c(C)c1[N+](=O)[O-]	i	-0.01
COc1cc([N+](=O)[O-])ccc1NC(=O)Cn1ccsc1=N	i	0.09
CCn1c(COc2ccccc2C)nnc1SCC(=O)CC(=O)Nc1ccccc1OC	i	1.4
COC(=O)CN(C)C1CC(=O)N(c2ccc(Cl)cc2)C1=O (stereo not drawn)	i	0.09
COc1ccc(CNC(=O)C2COc3ccccc3O2)cc1 (stereo not drawn)	i	-0.64
COC(=O)CS(=O)(=O)c1cc([N+](=O)[O-])ccc1NC(=O)OC	i	0.01
Cc1cc(=O)oc2cc(OCCC[n+]3ccccc3)ccc12	i	0.08
CC(=O)N1CCN(CCN=CC2=C(O)CC(c3ccco3)CC2=O)CC1 (stereo not drawn)	i	0.05
COc1cccc(CC(NC(C)=O)C(=O)NC2CCN(S(=O)(=O)c3ccc(NC(C)=O)cc3)CC2)c1 (stereo not drawn)	i	-1.5
COCCC(=O)N1CCC(Oc2ccc(C(=O)N3CCCC(CCCO)C3)cc2)CC1 (stereo not drawn)	i	1.3
COc1ccc(C(=O)C(/C=N/O)=N/Nc2ccc(F)cc2)cc1	i	-0.07
C/C(=N\NC(=S)Nc1cccc(C)c1)c1ccccc1	i	2.1
CCCCC(=O)N/N=C(\C)CC(=O)Nc1cc(Cl)ccc1OC	i	-0.84
O=C(Cc1ccc(-n2cccc2)cc1)N1CCc2ccccc21	i	-1.4
Cc1ccc(CC(=O)N2CCN(c3ccccn3)CC2)cc1	i	1.7
CN(Cc1cccc(F)c1)CC(O)COCc1ccccc1Cl (stereo not drawn)	i	-0.36
COc1cccc(NC(=O)N(CCCN2CCOCC2)C(C)c2cc3cccc(OC)c3o2)c1 (stereo not drawn)	i	-2.4
Cc1noc(C)c1COc1ccc(C(=O)OCc2nnc(-c3ccc(Cl)cc3)o2)cc1	-7.6*	0.92*
COc1ccc(N2CCC(CNC(=S)Nc3c(C)cccc3C)C2)cc1 (stereo not drawn)	i	-0.68
CC(C)=CCc1c2c(c3occ(-c4ccc(O)cc4)c(=O)c3c1O)C=CC(C)(C)O2	i	-0.25
O=C(CSc1n[nH]c(=O)n1-c1cccnc1)N1CCOCC1	i	-0.01
O=C(CN1CCC(C(=O)c2cccc(Cl)c2)CC1)Nc1cccc(C(=O)O)c1	i	3
COc1ccc(S(=O)(=O)N2CCOC2CNC(=O)C(=O)NCc2ccccc2OC)cc1 (stereo not drawn)	i	0.1
CCNc1nc(NC(C)C)nc(N(C#N)CCOc2ccccc2)n1	i	-0.91
Cc1ccc(C2NC(c3ccc(C)cc3)C(C)C(=O)C2C)cc1 (stereo not drawn)	i	-0.46
O=C(c1cccs1)N(Cc1ccc(Cl)cc1)C1CCS(=O)(=O)C1 (stereo not drawn)	i	0.08
Cc1cc(NC(=O)COc2ccccc2)ccc1Cl	i	2
O=S(=O)(NCc1ccccn1)c1ccc2ccccc2c1	i	0.26

Profiles from above.
Shown for Cc1ccc(C2NC(c3ccc(C)cc3)C(C)C(=O)C2C)cc1 (stereo not drawn) → KCNQ2 block = i; KCNQ2 block baseline = -0.46
Shown for O=C(CSc1n[nH]c(=O)n1-c1cccnc1)N1CCOCC1 → KCNQ2 block = i; KCNQ2 block baseline = -0.01

Continued.
SMILES	KCNQ2 block	KCNQ2 block baseline
O=C(NCCc1ccccc1)C(=O)NCC1CCNCC1	i	-0.29
CCN(CC(=O)Nc1c(F)cccc1F)C(=O)CSc1nnc(-c2ccco2)n1CC	i	2
O=C(CN1CCCCCC1)NC(c1ccccc1)c1ccccc1	i	-0.32
CCCC(NC(=O)C(C)NC(=O)CO/N=C1\C=C2CCC3C4CCC(C(C)=O)[C@@]4(C)CCC3[C@@]2(C)CC1)C(=O)O (stereo partly drawn)	i	2.7
Cc1ccc(C=Nc2ccccc2C(N)=O)s1	i	-0.2
Cc1cccc(N(C(=O)c2ccc(Cl)cc2)C2CS(=O)(=O)CC2OC(=O)c2ccc(Cl)cc2)c1 (stereo not drawn)	i	-1.6
CCN(CC)CCCN1C(=O)c2oc3ccccc3c(=O)c2C1c1cccc(OC)c1OC (stereo not drawn)	i	-0.97
COc1ccccc1C(=O)Nc1ccc(S(=O)(=O)Nc2cc(C)nc(C)n2)cc1	i	1.3
Cc1cccc2cc3c(N)c(C(=O)N4CCOCC4)sc3nc12	i	-0.33
Cc1cc(O)ccc1N/C=C1\CCCC1=O	i	0.79
Cc1ccc(SCc2nc3ccccc3n2CC(=O)Nc2ccccc2)cc1	i	3
O=C(NNC(=O)c1csc(N2CCOCC2)n1)c1ccc(Cl)nc1	i	-0.01
O=C(c1ccc(-c2ccc([N+](=O)[O-])cc2)o1)N1CCCCC1	i	0.5
Cc1ccc(C)c(NC(=S)N/N=C/C(C)c2ccccc2)c1 (stereo not drawn)	i	1.9
Cc1cccc(N(C)S(=O)(=O)c2ccc3c(c2)C(C)(C)C(=O)N3C)c1	i	0.5
CCOc1ccc(NC(=O)CN(C)S(=O)(=O)c2cnc[nH]2)cc1	i	-0.57
CCN1C(=O)[C@H]2[C@H]3[C@H](O)[C@H](O)C/C(=N\OC[C@@H](C)[C@H](OCc4ccccc4)C(C)C)[C@@H]3CC[C@H]2C1=O	i	1.4
CCOC(=O)c1c(NC(=O)CS(=O)(=O)c2cn(CC)c3ccccc23)sc2c1CCCC2	-11*	-0.1*
CN1C=CC2=C(C#N)C(N)C(C#N)(C#N)C(c3ccccc3)C2C1 (stereo not drawn)	i	4.4
O=C(CSc1ccc2nnc(-c3ccccn3)n2n1)Nc1ccccc1F	i	0.48
Cc1cccc(N2CCN(S(=O)(=O)c3ccc4c(c3)CCN4C(=O)CCC(=O)O)CC2C)c1 (stereo not drawn)	i	0.19
O=C(CSc1ccc(-c2ccc(-n3cccn3)cc2)nn1)Nc1ccc([N+](=O)[O-])cc1	i	0.37
CC(=O)c1ccc(S(=O)(=O)N(CCCO)Cc2cc3cc(C)ccc3[nH]c2=O)cc1	i	0.35
Cc1cc(C(=O)Nc2ncc(C)s2)c2ccccc2n1	i	0.44
CCCCCc1ccc(OCCCC[n+]2cccc(C)c2)c(CCCCC)c1	i	-0.04
CCN1C(=O)[C@@H]2Cc3c([nH]c4ccccc34)C(c3cc(OC)c(OC)c(OC)c3)N2C1=S (stereo partly drawn)	i	-0.34
COc1ccccc1-n1c(C)cc(SC)c(C(C)=O)c1=S	i	1.1
O=C(/C=C/c1cccc(O)c1)c1ccc(N2CCOCC2)cc1	i	0.06
CCN(c1ccccc1)c1cc(C)nc2nc(C)nn12	i	-0.03
COc1ccc(NC(=O)NC(C)c2ccccc2)cc1 (stereo not drawn)	i	-0.42
CCCn1nc(NC(=O)c2ccco2)c2cc3ccccc3nc21	i	0.71
CCOC(=O)CSc1nnc(-c2ccoc2C)n1-c1ccc(OCC)cc1	i	1.1
Cc1cccc(-c2nnc(NC(=O)c3ccco3)s2)c1	i	0.63
Cc1ccc(S(=O)(=O)N2CCN(Cc3ccsc3)CC2)cc1	i	0.37
CCOC12NC(=O)CC(=O)N1C(c1ccccc1)=CS2 (stereo not drawn)	i	0.73
COC(=O)/C(=C/Nc1cccc2ccccc12)[N+](=O)[O-]	i	-0.02
O=C(Nc1ccccn1)C1(c2ccccc2)CCCC1	i	0.75
COc1cc(/C=N/NC(=O)c2cccnc2)ccc1OCC(=O)Nc1ccccc1Cl	i	0.55
COc1ccc(C(=O)NC(=S)Nc2ccc(CN3CCOCC3)cc2)cc1OC	i	0.17
CCc1ccc(NC(=O)c2cnccn2)cc1	i	-1.1
CC12CCC(C(=O)Nc3cc(Cl)ccc3Cl)(C(Br)C1=O)C2(C)C (stereo not drawn)	i	0.01
CCOc1ccc(CNC(=O)Cn2c(=O)c3cccn3c3ccccc32)cc1	i	1.2
COCc1n[nH]c(=S)n1-c1ccccc1	i	0.44
CCn1c(=O)c(C(=O)CN2CCN(S(=O)(=O)c3ccc(C)cc3C)CC2)c(N)n(Cc2ccccc2)c1=O	i	-0.47
CC(C)Oc1ccc(S(=O)(=O)N2CCOCC2)cc1NC(=O)c1ccc(N2CCCC2=O)cc1	i	-0.95
CCOc1ccc(CC(=O)NCc2ccc3c(c2)cc(C)n3C)cc1	i	-0.07
Cc1ccccc1CN1C(=O)C2(OCCCO2)c2ccccc21	i	-1
O=C(Nc1cccc(C(F)(F)F)c1)c1cccnc1N1CCN(c2ccccc2)CC1	-7*	-0.08*
COc1ccc(NC2CCCN(C(=O)CCc3ccncc3)C2)cc1OC (stereo not drawn)	i	3.2
Cc1ccccc1C1c2[nH]c3ccccc3c2C[C@H]2C(=O)N(c3ccccc3C(=O)NCCN3CCOCC3)C(=O)N12 (stereo partly drawn)	i	2.3
COc1ccccc1CNC(=O)C1CCN(S(=O)(=O)c2ccc3c(c2)NC(=O)CO3)CC1	i	1.3
COCCNC(=S)N(CCc1c(C)[nH]c2ccc(F)cc12)Cc1cccs1	i	-0.38
Cc1ccc(NS(=O)(=O)c2ccccc2)c2c1CC(C)(C)O2	i	0.53
C=CCNC(C(=O)Nc1cccc(OC)c1)c1ccccc1 (stereo not drawn)	i	-1.7
Cc1ccc(-n2cnn(-c3ccc([N+](=O)[O-])cc3[N+](=O)[O-])c2=O)cc1	i	0.11

Of the compounds above, these contain an aryl thioether with sulfur outside any ring:
SMILES	KCNQ2 block	KCNQ2 block baseline
C/C(COc1ccccc1)=N\NC(=O)c1nnn(-c2nonc2N)c1CSc1ccccc1	i	0.28
N#CCSc1nnc(-c2ccccc2)c(-c2ccccc2)n1	i	0.72
COc1cc(SC)ccc1C(=O)N(Cc1ccccc1)c1ccccc1	i	-0.61
CSc1ccccc1NC(=O)Cn1nc([N+](=O)[O-])cc1C	i	-2.8
CCn1c(COc2ccccc2C)nnc1SCC(=O)CC(=O)Nc1ccccc1OC	i	1.4
O=C(CSc1n[nH]c(=O)n1-c1cccnc1)N1CCOCC1	i	-0.01
CCN(CC(=O)Nc1c(F)cccc1F)C(=O)CSc1nnc(-c2ccco2)n1CC	i	2
Cc1ccc(SCc2nc3ccccc3n2CC(=O)Nc2ccccc2)cc1	i	3
O=C(CSc1ccc2nnc(-c3ccccn3)n2n1)Nc1ccccc1F	i	0.48
O=C(CSc1ccc(-c2ccc(-n3cccn3)cc2)nn1)Nc1ccc([N+](=O)[O-])cc1	i	0.37
COc1ccccc1-n1c(C)cc(SC)c(C(C)=O)c1=S	i	1.1
CCOC(=O)CSc1nnc(-c2ccoc2C)n1-c1ccc(OCC)cc1	i	1.1
